# NPYLR7 ag: activates Aedes aegypti NPYLR7 receptor. activation, % at 10 µM. 270,000 tested, 0.15% active. HEK293T NPYLR7/Galpha15, GCaMP6s calcium fluorescence; in the data active = activation above about 40%;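 also: 0% = vehicle and 100% = reference agonist at the receptor; some compounds past the cut are filed as inactive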
# NPYLR7 ag max-min: recorded beside NPYLR7 ag, whose call it bears; activation, %; measured here: Max-Min RFU normalised activation; some inactives read as strong as hits;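 span of the calcium signal over five minutes; 0% = vehicle and 100% = native peptide agonist; compound fluorescence can raise it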
# * marks the source's active call; other numbers are inactive results; & = joins results of further samples.
SMILES,NPYLR7 ag,NPYLR7 ag max-min
O=C1CC(c2nc3ccccc3n2Cc2ccc(F)cc2)CN1c1ccccc1 (stereo not drawn),8,13
Brc1cnc(N2CCOCC2)nc1N1CCCCC1,13,4
O=C(C=Cc1ccc(N2CCCCC2)cc1)c1ccc(S(=O)(=O)N2CCCC2)cc1,-1,-3
CNC(=O)Cc1nc(CNc2cccc(C(=O)OC)c2)cs1,-15,-13
CCOCCCN(CC(=O)N1CCc2sccc2C1c1ccc(Cl)cc1)C(=O)c1cccc(F)c1 (stereo not drawn),-3,11
O=C1COc2ccc(S(=O)(=O)NC3CC3)cc2N1,0,-5
CCC1(C)Cc2ccccc2-c2c1c(=O)n(-c1ccc(C)cc1)c1nncn21 (stereo not drawn),1,-5
COc1ccc(OC)c(NC(=O)CSc2nc3c(-c4ccccc4)c[nH]c3c(=O)n2C2CC2)c1,2,2
Cc1cc(=O)[nH]c(SCC(=O)Nc2cc(C)on2)n1,4,1
CC(Oc1ccc(F)cc1)C(=O)N1CCN(CC(=O)Nc2ccc(F)cc2)CC1 (stereo not drawn),5,10
O=C(NC1CCCC[C@H]1N(Cc1ccc(Cl)cc1)C(=O)c1ccccc1)C1CCCN(C(=O)C2CC2)C1 (stereo partly drawn),9,16
CCCCc1ncc(CN2CCC(C(=O)Nc3ccccc3-c3cccc(OC)c3)CC2)[nH]1,7&12,3&6
COC(=O)C1C(=O)C(=C(C)N2CCCC2)C(=O)CC1(C)C (stereo not drawn),-8,-9
CC(NC(=O)Cc1ccc(Oc2nc(Cc3ccc(F)cc3)ns2)cc1)c1ccccc1 (stereo not drawn),0,6
CCN(CC)CCNC(=O)c1cc(NC(=O)Nc2ccc(C)cc2)ccc1N1CCCC1,8,13
CCC(C)(O)CC(=O)N1CCC2(CC1)Nc1ccccc1C(=O)N2c1ccc(OC)cc1 (stereo not drawn),0,10
COc1ccccc1CNC(=O)c1nnn(Cc2cc(C)ccc2C)c1N,1,9
Cc1ccc(C(=O)N2CCN(c3nc(-c4ccc(Cl)cc4)nc(C)c3C)CC2)cc1[N+](=O)[O-],-5,-2
CCOCCCNC(=O)CSc1nc2sc(C)c(C)c2c(=O)n1CC,-10,-11
COc1cc(C(=O)NCCc2csc3nc(-c4cccs4)nn23)c([N+](=O)[O-])cc1OC,-8,-3
O=C(CSc1nnc(-c2ccc(Cl)cc2)n1Cc1ccco1)NC1CC1,2,-2
COc1ccc(-c2ccnc(CO)c2)c(OC)c1,-7,-8
COc1ccc(NC(=O)NCCNc2cc(-n3ccnc3C)ncn2)c(C)c1,-16,-20
NC(=O)Cc1csc(-c2ccc(Cl)s2)n1,-29,-26
COc1ccc(CCC(=O)NC2CCCN(C3CCN(C)CC3)C2)cc1 (stereo not drawn),0,0
NS(=O)(=O)c1ccc(Sc2ccc3c(c2)CCC3)nc1,10,11
C=CCN1CC(c2nc3ccccc3n2CCCOc2cccc(C)c2)CC1=O (stereo not drawn),5,8
CC(=O)ON=C1Sc2ccccc2C1=O,0,-1
COC(=O)CC1c2cccnc2C(=O)N1C (stereo not drawn),5,15
O=C(CSc1nnc(NC(=O)c2ccccc2)s1)Nc1nccs1,-12,-20

# Part of the list above in order of SMILES length, high to low.
SMILES,NPYLR7 ag,NPYLR7 ag max-min
O=C(NC1CCCC[C@H]1N(Cc1ccc(Cl)cc1)C(=O)c1ccccc1)C1CCCN(C(=O)C2CC2)C1 (stereo partly drawn),9,16
Cc1ccc(C(=O)N2CCN(c3nc(-c4ccc(Cl)cc4)nc(C)c3C)CC2)cc1[N+](=O)[O-],-5,-2
COc1ccc(OC)c(NC(=O)CSc2nc3c(-c4ccccc4)c[nH]c3c(=O)n2C2CC2)c1,2,2
COc1cc(C(=O)NCCc2csc3nc(-c4cccs4)nn23)c([N+](=O)[O-])cc1OC,-8,-3
CCOCCCN(CC(=O)N1CCc2sccc2C1c1ccc(Cl)cc1)C(=O)c1cccc(F)c1 (stereo not drawn),-3,11
CCC(C)(O)CC(=O)N1CCC2(CC1)Nc1ccccc1C(=O)N2c1ccc(OC)cc1 (stereo not drawn),0,10
O=C(C=Cc1ccc(N2CCCCC2)cc1)c1ccc(S(=O)(=O)N2CCCC2)cc1,-1,-3
CC(NC(=O)Cc1ccc(Oc2nc(Cc3ccc(F)cc3)ns2)cc1)c1ccccc1 (stereo not drawn),0,6
CCN(CC)CCNC(=O)c1cc(NC(=O)Nc2ccc(C)cc2)ccc1N1CCCC1,8,13
CCC1(C)Cc2ccccc2-c2c1c(=O)n(-c1ccc(C)cc1)c1nncn21 (stereo not drawn),1,-5
COc1ccc(NC(=O)NCCNc2cc(-n3ccnc3C)ncn2)c(C)c1,-16,-20
O=C(CSc1nnc(-c2ccc(Cl)cc2)n1Cc1ccco1)NC1CC1,2,-2
COc1ccc(CCC(=O)NC2CCCN(C3CCN(C)CC3)C2)cc1 (stereo not drawn),0,0
COc1ccccc1CNC(=O)c1nnn(Cc2cc(C)ccc2C)c1N,1,9
CCOCCCNC(=O)CSc1nc2sc(C)c(C)c2c(=O)n1CC,-10,-11
NS(=O)(=O)c1ccc(Sc2ccc3c(c2)CCC3)nc1,10,11
O=C1COc2ccc(S(=O)(=O)NC3CC3)cc2N1,0,-5
COc1ccc(-c2ccnc(CO)c2)c(OC)c1,-7,-8
NC(=O)Cc1csc(-c2ccc(Cl)s2)n1,-29,-26
CC(=O)ON=C1Sc2ccccc2C1=O,0,-1

# Carrying on:
SMILES,NPYLR7 ag,NPYLR7 ag max-min
Cc1cccc(C)c1N1CCN(S(=O)(=O)N2CCCC2)CC1,-2,-5
Clc1ccc2nc(CSc3ccc4ccccc4c3)cn2c1,2,14
CCCOc1ccccc1/C=N\Nc1nncn1/N=C\c1ccccc1OCCC,-9,-15
CC(=O)N1CCC(N2CCC(Sc3ccccc3C)CC2)CC1,3,2
COC(=O)C(C)Sc1nnc(-c2ccccc2Cl)n1-c1ccccc1C (stereo not drawn),7,15
O=C(CCc1cccs1)N1CCN(CC2CCCO2)CC1 (stereo not drawn),2,3
Cc1c(CC(=O)NCCN2CCOC2=O)c2c(n1Cc1ccccc1)CCCC2=O,7,3
O=C(NCC(CO)Cc1cccs1)c1cccnc1 (stereo not drawn),-4,-11
COc1ccc(N2CC(C)Cn3c2nc2c3c(=O)[nH]c(=O)n2C)cc1 (stereo not drawn),0,-2
CCOC(=O)[C@H]1[C@@H](O)C(=O)N(Cc2ccccc2)C12CCN(C(=O)COc1ccccc1)CC2,7,21
CCCn1c(N)c(C(=S)NC(=O)C2CC2)c(=O)n(C)c1=O,-2,-4
O=C(NCCN1CCCCC1)C(C1CCCC1)N1CCN(C(=O)c2ccc(Cl)cc2)CC1 (stereo not drawn),-5,1
CCOc1ccc(-n2c(SCC(=O)Nc3cc(C)on3)nc3c([nH]c4ccccc43)c2=O)cc1,0,7
O=C(Cc1csc(-c2ccccn2)n1)Nc1ccc2c(c1)OCCO2,13,8
CSc1ccc(C(=O)N(Cc2cccnc2)CC2CCN(C3CCCC3)CC2)cc1,-5,-8
O=C(CCn1ccc(=O)[nH]c1=O)N1C[C@@H]2[C@@H]3CC[C@@H](C3)[C@@H]2C1,11,8
O=C(Nc1ccc(NCN2C(=O)c3ccc([N+](=O)[O-])cc3C2=O)cc1)c1ccccc1,1,-5
COC(=O)c1ccc(Cn2c(C)c(C(=O)NCc3ccc(C(F)(F)F)cc3)sc2=O)o1,-7,-8
O=C(Cc1ccc(F)cc1)N1C[C@H](Oc2ccccn2)[C@H]2C[C@@H]1Cc1c2[nH]c2ccccc12,13,13
CCN(CC)C(=O)[C@@H]1C[C@@H](N)CN1S(=O)(=O)c1cc(C)ccc1OC,1,0
CC(O)Cn1ccnc1-c1ccc(C#CCCO)cc1 (stereo not drawn),18,7
COc1cn(CC(=O)NCc2ccc(F)cc2)c(CSc2nncn2C)cc1=O,-1,-6
CCOC(=O)c1cc(-c2ccc(N3CCN(C(=O)c4cc(C)oc4C)CC3)cc2)n(-c2ccc(F)cc2)n1,21,15
Cc1ccc(-c2nc(C)c(Cc3ccccc3)c(N3CCN(S(=O)(=O)c4cccc5ccccc45)CC3)n2)cc1,-4,3
COCCCN1C(=O)CC(CC(=O)N2CCCC2c2ccc(F)cc2)(c2ccccc2OC)C1=O (stereo not drawn),6,6
Cc1c(S(=O)(=O)N2CCCCC2)c(=O)n(C)c(=O)n1C,0,-1
O=C1NC2(CCN(C(=O)c3ccc([N+](=O)[O-])cc3)CC2)Nc2cccc(F)c21,8,14
O=C(Nc1ccc(Cl)cn1)c1ccc(Cn2cc(Br)c([N+](=O)[O-])n2)cc1,1,-1
CCN(C(=O)C(C)N1CCN(c2cccc(C)c2C)CC1)C1CCS(=O)(=O)C1 (stereo not drawn),8,6
CC1=C(C(=O)OC2CCCC2)C(c2ccccc2Cl)NC(=O)N1C (stereo not drawn),-2,-6
CCCc1cn(CC2CCCN(C(=O)NC3CCCCCC3)C2)nn1 (stereo not drawn),-1,-8
COc1ccc(-c2noc(-c3ccc(Br)o3)n2)cc1OC,6,3
Cc1cn(CCNC(=O)CC2COc3ccc(C(=O)N(C)C)cc3N2C)nn1 (stereo not drawn),16,5
COc1ccc(OC)c(NC(=O)CC23CC4CC(C2)CC(c2ccccc2)(C4)C3)c1,4,5
Cc1cc([N+](=O)[O-])nn1CC(=O)Nc1cc(Cl)ccc1O,-4,-11
CCc1ccccc1-n1nc(C(C)C)nc1CCn1cnnn1,-3,-4
O=C(NCCCn1cccn1)C1CC2CCCCC2N1C(=O)c1cccc(Cl)c1 (stereo not drawn),-5,-4
CC(=O)c1ccc(Oc2cc(C(C)C)nc(SCc3cccc(C#N)c3)n2)cc1,1,7
C=CCCCCCCCCCCCC(O)CC(O)CO (stereo not drawn),4,-9
CCCCCc1nnc(NC(=O)c2cccc(Br)c2)s1,0,-1
CCc1nc2c(OCCOc3ccc(F)cc3)cccn2c1N(C)C(=O)c1ccc(C)cc1,-19,-1
O=C(NCc1ccc(-n2cncn2)nc1)[C@@H]1CCCN1C(=O)c1ccco1,21,13
COc1cccc2sc(NC(=O)CCNC(=O)c3ccco3)nc12,0,-1
CN(CCc1c[nH]c2ccccc12)C(=O)c1cncn1-c1ccc(-c2ccc(F)c(F)c2)cc1,27,19
CC(C)CC(=O)Nc1ccnn1C1CCN(C(=O)c2cncc(F)c2)CC1,-13,-15
Cc1cn2c3c(=O)n(CCN4CCOCC4)c(=O)n(C)c3nc2n1-c1ccc(F)cc1,13,8
O=C(OCc1nc(C(=O)N[C@@H]2C[C@H]3CC[C@@H]2C3)cs1)c1ccccc1,-10,-12
CC(C)c1nc(CNC(=O)c2ccc(N3CCCC3c3ccccn3)nc2)no1 (stereo not drawn),4,3
Cc1cc(C)n(N=Cc2cccc([N+](=O)[O-])c2)c(=O)c1,0,-1
COc1cccc(Nc2nc(C(N)Cc3ccccc3)cs2)n1 (stereo not drawn),-3,-7
# Remaining list, next part.
SMILES,NPYLR7 ag,NPYLR7 ag max-min
Cc1nc(SCC(=O)NCC(O)Cc2ccccc2)n[nH]1 (stereo not drawn),4,2
CCc1ccc(N2CC(C)Cn3c2nc2c3c(=O)n(CC(=O)OCc3ccccc3)c(=O)n2C)cc1 (stereo not drawn),1,7
Cc1c[nH]c(CN2CCOC(C(F)(F)F)C2)c(C)c1=O (stereo not drawn),4,0
CC1CCCCN1CC(=O)N1N=C(c2ccccc2Cl)CC1c1cccn1C (stereo not drawn),18,26
O=C(Cc1cc2c(cc1Br)OCCO2)NCCCN1CCCC1=O,-2,-3
O=C(CN(CCN1CCOCC1)C(=O)Nc1cccc(C(F)(F)F)c1)N(Cc1ccc(F)cc1)Cc1cccs1,2,4
CCOC(=O)N1CCN(C(=O)CSc2ccc3nnc(-c4ccc(C)cc4)n3n2)CC1,1,9
CC(C)(C)CN1CCNC(=O)C1CC(=O)NCc1cccc(OC(F)(F)F)c1 (stereo not drawn),13,9
O=C(CCc1nnc(Cc2ccc(-c3ccccc3)cc2)o1)N1CCSCC1,14,1
COc1ccccc1NC(=O)C1C(=O)NC2(C)CC1c1ccccc1O2 (stereo not drawn),-1,4
CCC(=O)Nc1cc2c(cc1OC)C(c1cc(C)ccc1C)CC(=O)N2 (stereo not drawn),0,5
CN(C)C(CNS(=O)(=O)c1cnn(C)c1)c1cccc(F)c1 (stereo not drawn),0,-1
CC(=O)c1ccc(NC(=O)c2cc3c(ccc4ccccc43)oc2=O)cc1,-5,-6
CC1(C)C(=O)N(CCN2CCC(C(=O)c3ccc(F)cc3)CC2)c2ccccc21,-1,-8
O=C(CCc1cccs1)Nc1ccccc1N1CCCCC1,7,8
N#Cc1ccc(OCc2cc(-c3cccs3)on2)c(Cl)c1,4,5
Cc1ccsc1[C@@H]1CCN(C(=O)c2c(C)nc3ncccn23)C[C@H]1O,1,-2
CC1C(=O)N(c2ccc(F)c(Cl)c2)CCN1C(=O)c1ccccc1Cl (stereo not drawn),-4,3
Cc1ccc(NC(=O)N(CC(=O)N(Cc2ccc3c(c2)OCO3)Cc2sccc2C)C2CC2)cc1,-1,3
COCCN(CC(=O)N(Cc1ccc(F)cc1)Cc1sccc1C)C(=O)Nc1cccc(Br)c1,5,5
COc1cccc(NC(=O)N2CCSC23C(=O)N(Cc2ccccc2Cl)c2ccc(C)cc23)c1 (stereo not drawn),14,12
CCCn1cnnc1CNC(=O)CN(c1cccc(C)c1)S(C)(=O)=O,-2,-5
COc1ccc(CC(=O)N(C)CC2CCCN(CCc3ccccc3F)C2)cc1OC (stereo not drawn),16,3
Cc1n[nH]c(C)c1NC(=O)CN1CCCC(C2OCCO2)C1 (stereo not drawn),2,1
Cc1ccc(-n2nc(C)c3c2NC(=O)CC3c2ccncc2Cl)cc1 (stereo not drawn),4,-8
CCc1nc2ccc(C(=O)Nc3ccc4c(c3)OCC(=O)N4)cn2c1N(C)CCCc1ccccc1,11,5

# These rows are one share of the data; the hit share may differ from the screen's.
